Compound activity as filed in PubChem.
Menin-MLL FL inh: displaces fluorescein MLL peptide from human menin; Fluorescence polarization, fluorescein-MLL peptide displacement from menin; 290,000 tested, under 10 active; FP activity change, % at 61.4 µM; inconclusive = falling polarisation curve, or a change in total fluorescence; inactive = total fluorescence flat and polarisation flat or rising; no compound was filed as active; the % refers to the polarisation; negative = inhibition;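 note: % of control where 0% means no effect; inhibitors lower the polarisation; unlabelled MLL peptide was the positive control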
ClpP mod: qHTS Assay for Activators of ClpP; ATP-dependent Clp protease proteolytic subunit (Bacillus subtilis (strain 168)), P80244; purified B. subtilis ClpP, FRET peptide cleavage, 20 min; Potency, µM (top dose mostly 57.5 µM), for inactives: at the highest dose activity change, negative = active; 340,000 compounds, 1.9% hits; AID 651965, 2013; active = well fitted falling curve with a large enough effect; inconclusive = small, poorly fitted or top-dose-only effect; inactive = no such curve, though single readings can be large or run the other way; note: potency is the fitted concentration of half-maximal effect; the source files actives as falling curves though it sought activators and does not explain the sign; nearly all actives have a fitted effect of over 65% in size; many hits overshoot -100%
Target sequence (P80244 whole entry, looked up): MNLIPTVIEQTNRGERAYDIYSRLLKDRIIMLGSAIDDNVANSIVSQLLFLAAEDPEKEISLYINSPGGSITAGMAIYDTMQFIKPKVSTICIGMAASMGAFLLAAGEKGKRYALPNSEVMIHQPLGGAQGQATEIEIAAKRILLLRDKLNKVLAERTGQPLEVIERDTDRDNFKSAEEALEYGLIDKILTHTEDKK
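Purified B. subtilis ClpP, 10 microg/mL final in Tris/HCl pH8 with KCl, BSA, glycerol and Tween-20, cleaved an Abz/nitrotyrosine-quenched decapeptide. Fluorescence (ex 320, em 430) was read at 0 and 20 min at room temperature. Delta was normalized to 5.8 microM ADEP and DMSO/no-enzyme controls.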
TRPML1 ag: human mucolipin-1 channel agonism; Q9GZU1; 410,000 compounds, 0.12% hits; TRPML1-expressing cells, Ca2+ dye fluorescence, FDSS; host cell line not named in the record; reference of the full effect not given here; activation, % (no concentration beside the values); in the data active = activation above about 50%; inconclusive = about 30% to 50%; inactive = below about 30%; note: 0% is about no effect; the text of the record puts the active cut at 80%
Target sequence (Q9GZU1 whole entry, looked up): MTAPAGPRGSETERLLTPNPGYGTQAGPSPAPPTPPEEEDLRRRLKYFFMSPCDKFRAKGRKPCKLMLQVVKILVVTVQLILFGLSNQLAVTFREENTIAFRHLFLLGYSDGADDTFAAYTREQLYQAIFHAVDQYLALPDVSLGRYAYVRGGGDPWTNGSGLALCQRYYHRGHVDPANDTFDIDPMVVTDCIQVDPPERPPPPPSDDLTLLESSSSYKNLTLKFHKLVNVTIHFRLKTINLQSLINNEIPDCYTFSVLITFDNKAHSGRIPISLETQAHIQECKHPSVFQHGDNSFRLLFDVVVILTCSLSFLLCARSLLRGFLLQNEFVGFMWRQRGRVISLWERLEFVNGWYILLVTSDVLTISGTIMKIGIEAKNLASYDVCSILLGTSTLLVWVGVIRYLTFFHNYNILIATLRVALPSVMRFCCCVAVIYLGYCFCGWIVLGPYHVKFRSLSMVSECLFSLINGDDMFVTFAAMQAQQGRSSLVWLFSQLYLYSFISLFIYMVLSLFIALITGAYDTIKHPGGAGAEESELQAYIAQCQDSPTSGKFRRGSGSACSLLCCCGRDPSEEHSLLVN
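Tet-induced TRPML1-DL cells, 1,500 per well, cultured overnight, were loaded with a no-wash Ca2+ dye for 45–90 min. Calcium fluorescence was recorded on the FDSS for 110 s after compound addition, before the EC80 agonist (4 uM 54-4) was added.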
TRPML1 inh: human mucolipin-1 channel inhibition. TRPML1-inducible cells, Ca2+ dye fluorescence, FDSS; hits give low values; inhibition of EC80 agonist-evoked calcium signal. activity change, negative = inhibition, % (concentration not given with the values). 390,000 compounds, 0.02% hits; in the data active means activity change below about -50%; inconclusive means about -30% to -50%; inactive means above about -30%;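 note: stimulus is agonist 54-4 at its EC80 concentration; % is set by controls: 0 for no effect and ±100 for the full control effect; the text of the record puts the active cut at -80%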
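Tet-induced TRPML1-DL cells loaded with Ca8 no-wash calcium dye were read kinetically on FDSS. Compound addition was followed by EC80 agonist 54-4 (4 uM final); inhibition was read over 110 s.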
gsp ag: agonists of gsp mutant (McCune-Albright syndrome); AID 624287; gsp mutant cells, cAMP HTRF, 30 min; control for the full effect not named in the record; 340,000 compounds, 0.13% hits; Potency, µM (titrated, usually from 76.9 µM), for the others: top-dose activation (cAMP increase), most hits filed as activators; active = well fitted activation curve with a large enough effect; inconclusive = small, poorly fitted or top-dose-only effect, or another doubt; inactive = no such curve, though single readings can be large or run the other way; cell line not stated here;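 note: phosphodiesterase inhibitor Ro 20-1724 added with compounds to block cAMP breakdown; potency is the fitted concentration of half-maximal effect; nearly all actives have a fitted effect of over 60% in size; about a fifth of the inactives were tested at one dose only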
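Cells in DMEM/10% FBS with G418 were pretreated with compounds in DMSO plus […] (300 uM stock) for 30 min at 37C. cAMP was measured by HTRF (cAMP-d2 plus anti-cAMP antibody-K) after 30 min at room temperature.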
gsp antag: antagonists of gsp mutant (McCune-Albright syndrome); gsp-mutant cells, cAMP HTRF, 30 min; control for the full effect not named in the record; Potency, µM (series often up to 76.9 µM), for the others: top-dose activity change, negative = inhibition, usual class: inhibitors; 340,000 compounds, 0.4% hits; active = falling curve of any shape with a large fitted effect; inconclusive = falling curve, mostly with a smaller effect; inactive = flat or rising curve; cell line not stated here;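 note: intracellular cAMP measured with PDE inhibitor Ro 20-1724 present during compound exposure; potency is the fitted concentration of half-maximal effect; % is set by controls: 0 for no effect and ±100 for the full control effect; nearly all actives have a fitted effect of over 65% in size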
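HTRF cAMP measurement after 30 min RT detection following 30 min, 37C compound treatment alongside […] (added as 300 uM solution) in G418-selected cells seeded at 2000/well and grown 16–24 h.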
Numbers without * were called inactive; ? = inconclusive; · = no result given; & = joins results of further samples; [ ] = remark or other dose. Rows are unselected; 2.1% or so of the library scored in one or more.

SMILES,gsp ag,Menin-MLL FL inh,TRPML1 ag,TRPML1 inh,ClpP mod,gsp antag
COc1ccccc1CNCCSc1nnnn1C,·,·,0.4,-6,-1.2%,·
Cc1ccc([N+](=O)[O-])cc1NC(=O)c1ccccc1,-2%[15.4 µM],-1.1,0.6,8,·,4%
COc1ccccc1N=Nc1c(C)noc1C,2%[15.4 µM],-0.8,-0.8,-5,-1.3%,-10%
Cc1cc(C(F)(F)F)c(C#N)c(SCC(=O)NC2CC2)n1,-21%,2.4,-0.5,-7,-2.7%,-19%
Cc1nn(-c2ccccc2)c2sc(C(=O)N(CC(=O)NC(C)(C)C)Cc3ccco3)cc12,0%,1.0,2.1,10,-13%,?
Cc1c(Cl)cccc1NC(=O)CSc1nc(=O)n(Cc2ccccn2)c2c1CCC2,·,·,0.8,-11,-21%,·
Cc1ccsc1/C=C1/SC(=O)N(CC(=O)N2CCCC2)C1=O,-2%,·,-0.4,-13,0.7%,1%
COc1ccc(S(=O)(=O)NCc2csc(-c3cccnc3)n2)cc1,-37%[inhibitor],3.1,-0.7,-9,-22%,1%
Cc1cc(C)c(S(=O)(=O)NCc2ccc3c(c2)cc(C)n3C)c(C)c1,?,-27,1.1,29,0.8%,-4%
O=C(CSc1nnc(Cc2cccs2)n1Cc1ccco1)Nc1ccc(Br)cc1,-19%,3.4,4.2,-1,-0.1%,3%
CSCCC(=O)N1CCN(CC(=O)N2CCCC2)CC1,9%[15.4 µM],-1.5,-0.5,-5,·,3%
Cc1cc([N+](=O)[O-])nn1CC(=O)N1CCN(Cc2ccccc2)CC1,-17%,4.7,1.2,-5,2.5%,2%
Cc1ccc(S(=O)(=O)N(CC(=O)N2CCN(c3ccccc3F)CC2)C2CCCCC2)cc1,-6%,1.7,-1.1,22,-1.9%,-2%
CC(=O)OC1(C(C)=O)CCC2C3CC4OC45CC(O)CCC5(C)C3CCC21C (centres undefined),?,·,0.1,7,·,-3%
COc1ccc(C=NCCC2(O)CC(C)N(C)CC2C)cc1 (centres undefined),10%,1.5,1.6,5,-4.9%,9%
Cc1c(NC(=O)COC(=O)Cn2cc(C(F)(F)F)ccc2=O)cccc1[N+](=O)[O-],-3%,·,1.0,1,0.5%,-16%
Nc1nc(=S)c2ncn(C3CCCCC3)c2[nH]1,19%,·,1.9,24,·,-13%
COc1ccc(C2/C(=C(/O)c3ccc4c(c3)CC(C)O4)C(=O)C(=O)N2CCCN2CCOCC2)cc1OC (centres undefined),?,·,-0.2,0,0.5%,11%
Cc1ccc(/C=N/NC(=O)C2CC(=O)N(c3ccccc3)C2)s1 (centres undefined),-45%,1.2,0.3,-15,5.4%,10%
CCN(CC)CCn1c2ccccc2c2n[nH]c(=S)nc21,1%,-1.2,-0.5,8,·,-5%
CCCNCC1C(Oc2ccc(Cl)cc2Cl)C(=O)N1c1cccc(C)c1C (centres undefined),?,-1.0,0.6,31,-1.9%,-9%
Cn1c(=O)[nH]c(=O)c2c1nc(NCCc1ccccc1)n2CC(O)COc1ccccc1 (centres undefined),9%,-1.4,2.7,-10,0.6%,-1%
CCn1cnc2c([N+](=O)[O-])c(NS(=O)(=O)c3ccc(C)cc3)ccc21,-22%,·,0.1,-22,0.8%,-11%
Cc1c(NC(=S)N/N=C/c2ccc(Br)cc2)c(=O)n(-c2ccccc2)n1C,2%[15.4 µM],-1.9,-0.8,2,-0.4%,-4%
O=C(COc1ccccc1)Nc1ncn[nH]1,?,4.1,0.0,6,-0.5%,3%
O=C1c2ccccc2NC(c2ccccn2)N1c1ccccc1F (centres undefined),1%,0.4,-0.5,-1,32µM*,-1%
CC(C)C(NC(=O)c1c(F)cccc1F)C(=O)NCCc1ccc(S(N)(=O)=O)cc1 (centres undefined),25%[15.4 µM],-1.4,-0.2,-8,·,-15%
COc1cccc(-c2nc(SCC(=O)Nc3nc(-c4ccccc4)c(C)s3)[nH]c(=O)c2C#N)c1,2%[15.4 µM],5.5,1.2,12,·,-24%
CCSc1nc2sc3c(c2c(=O)n1-c1ccc(C)c(Cl)c1)CCN(C(C)=O)C3,·,·,0.8,-19,-1.3%,·
CCN(CC)Cc1c(O)ccc2c(=O)c(-c3ccc4c(c3)OCCO4)coc12,-5%,-0.6,-0.6,5,28µM*,-7%

Structures from the list above that have a furan ring, fused or not, in the order listed:
SMILES,gsp ag,Menin-MLL FL inh,TRPML1 ag,TRPML1 inh,ClpP mod,gsp antag
Cc1nn(-c2ccccc2)c2sc(C(=O)N(CC(=O)NC(C)(C)C)Cc3ccco3)cc12,0%,1.0,2.1,10,-13%,?
O=C(CSc1nnc(Cc2cccs2)n1Cc1ccco1)Nc1ccc(Br)cc1,-19%,3.4,4.2,-1,-0.1%,3%

(continued)
SMILES,gsp ag,Menin-MLL FL inh,TRPML1 ag,TRPML1 inh,ClpP mod,gsp antag
CN1CCC[C@H]1c1cccnc1,·,10&0.1,0.2&0.9,-1&14,0.5%&-0.2%,2%&-6%
O=C(NCCCN1CCOCC1)c1ccc2c(c1)N(Cc1ccc(Cl)cc1)C(=O)c1ccccc1S2=O (centres undefined),-17%,3.6,20,-8,0.0%,7%
CN(C)CCNC(=O)/C=C/c1cn(-c2ccccc2)nc1-c1cc2ccccc2oc1=O,0%,1.5,-0.1,-29,1.3%,7%
CCOc1ccc(Nc2nc(Cl)nc(NCCO)n2)cc1,-16%[15.4 µM],3.6,-0.2,9,-1.0%,12%
Cn1c(=O)c2[nH]c(C3CCC3)nc2n(C)c1=O,?,·,0.7,37,-6.5%,2%
CC12CCC(=O)C=C1CCC1C2CCC2(C)C(C(=O)CO)CC(O)C12 (centres undefined),4%[15.4 µM],·,1.0,6,2.0%,-3%
COc1ccc(OC)c(C2NC(=O)NC(C)=C2C(=O)Nc2cc(C)cc(C)c2)c1 (centres undefined),·,·,-0.3,3,-0.5%,·
O=C(c1ccccc1NS(=O)(=O)c1cccc([N+](=O)[O-])c1)N1CCOCC1,17%,3.1,0.6,3,0.3%,5%
CCC1(CC)Cc2ccccc2C2=C(C(=O)N3CCCCC3)C(=O)C(=O)N21,-23%,-4.8,1.4,-3,1.9%,9%
CN(C)c1ccnc(C(=O)O)c1,-2%[15.4 µM],-0.1,1.5,4,·,15%
Cc1cc(C)cc(OCC(=O)Nc2ccc(N3CCOCC3)cc2N2CCOCC2)c1,8%,·,0.5,24,0.5%,-12%
CCNc1ccc(Br)cc(C(=O)/C=C/c2c(Cl)cccc2Cl)c1=O,13%,17,1.2,10,-0.3%,2%
Cn1nc(C(=O)OCC(=O)c2ccc(Br)cc2)c2ccccc2c1=O,-6%[15.4 µM],·,2.8,11,-0.2%,9%
O=C(CCC1N=C2c3ccccc3N=C(SCc3ccccc3F)N2C1=O)NCCc1ccccc1 (centres undefined),·,·,0.8,-20,4.3%,·
Oc1ccc(Oc2ccc(Oc3ccc(O)cc3)cc2)cc1,-8%,1.4,-0.7,48,2.6%,-5%
COc1ccccc1Nc1ccncc1[N+](=O)[O-],7%,1.5,-0.8,4,-0.9%,3%
O=C(CCN1C(=O)c2ccccc2C1=O)Nc1cccc(O)c1,-2%[15.4 µM],1.1,-1.3,11,1.2%,9%
CCc1nnc(NS(=O)(=O)c2ccc(NC(=O)c3cccc(Br)c3)cc2)s1,10%,-0.3,-0.3,0,-1.0%,-7%
CCOC(=O)c1cc2n(c1C)-c1ccccc1C2=O,8%,5.2,-0.5,1,-3.4%,3%
Oc1ccc(Cl)cc1CNCc1ccc(C(F)(F)F)cc1,-24%,·,0.5,-3,-1.9%,1%
Cc1ccc(NC(=O)CC2Oc3ccccc3NC2=O)cc1C (centres undefined),·,·,0.2,-18,0.8%,·
CCCOc1cccc(C(=O)Nc2cccc3ncccc23)c1,-25%,3.8,1.6,-6,·,7%
COc1ccc(NC(=O)COc2nc3ccccc3nc2N2CCOCC2)c(OC)c1,-3%[15.4 µM],-1.8,0.7,-5,·,7%
COc1ccc(OC)c(NC(=O)CSc2nnc(CNC(=O)c3cc(OC)c(OC)c(OC)c3)o2)c1,13%,·,-0.4,11,0.2%,2%
CCc1ccccc1N(CC(=O)N1CCN(c2ccccc2)CC1)S(C)(=O)=O,-3%,4.1,-0.8,10,-0.2%,-26%
COc1cccc(NC(=O)CSc2nc(C3CC3)nc3ccccc23)c1,5%[15.4 µM],0.7,0.9,9,·,-1%
COc1ccc(CN2C(=NC(=O)C3CCCO3)SC3CS(=O)(=O)CC32)cc1OC (centres undefined),-47%[inhibitor],·,-0.7,-3,-0.2%,17%
Cc1ccc(NC(=O)CN(C)C(=O)c2ccc(C(F)(F)F)cc2)cc1,-68%[inhibitor],·,1.5,1,-1.5%,11%
Cc1noc(C)c1C(=O)Nc1cccc(S(=O)(=O)N2CCCCC2)c1,-66%[inhibitor],·,0.5,-3,-0.8%,6%
O=C(OC1CCCC1)c1ccc(Cl)cc1Cl,?,·,1.3,-9,·,1%

Arranged by value in gsp ag (largest number first): three from the list above.
Compound	gsp ag
Cc1cc(C)cc(OCC(=O)Nc2ccc(N3CCOCC3)cc2N2CCOCC2)c1	8%
O=C1c2ccccc2NC(c2ccccn2)N1c1ccccc1F (centres undefined)	1%
Cc1c(NC(=O)COC(=O)Cn2cc(C(F)(F)F)ccc2=O)cccc1[N+](=O)[O-]	-3%

Continued.
SMILES,gsp ag,Menin-MLL FL inh,TRPML1 ag,TRPML1 inh,ClpP mod,gsp antag
CC(C)(C)C1CCc2c(sc(NC(=O)CCC(=O)O)c2C(=O)Nc2ccccc2C(F)(F)F)C1 (centres undefined),·,·,-0.4,13,-4.4%,·
CCOc1ccc(NCc2cccn2-c2nnc(N3CCC(C(=O)NCCc4ccc(OCC)c(OCC)c4)CC3)s2)cc1,·,·,0.4,-16,-0.8%,·
CC(=O)Nc1ccc(OCC(=O)NCc2ccc3c(c2)OCO3)cc1,4%[15.4 µM],5.0,-0.1,-14,?,6%
CCC(C)NC(=O)CN(c1cc(Cl)cc(Cl)c1)S(C)(=O)=O (centres undefined),3%,-0.7,1.3,1,1.5%,2%
CC(=O)c1c(C)[nH]c(C(=O)OCC(=O)N2c3ccccc3NC(=O)C2(C)C)c1C,-17%[15.4 µM],6.3,-0.3,-2,-3.3%,5%
Cc1ccccc1OCCC(=O)OCC(=O)NC(C)c1ccccc1 (centres undefined),0%,1.3,-0.6,-1,·,0%
Cc1cc(C)c(C(=O)COC(=O)CNC(=O)c2ccccc2C)c(C)c1,10%,·,-1.4,19,1.1%,-6%
